Compound activity deposited in PubChem BioAssay by National Center for Advancing Translational Sciences (NCATS).
Cruzain inh noDet = cruzain (T. cruzi) inhibition without detergent; 200,000 compounds, 2.3% hits; Potency, µM, without a hit: max response, negative = inhibition, hits mostly inhibitors; purified cruzain, Z-FR-AMC fluorescence, no detergent; P25779; active = well fitted curve in the direction sought with a large enough effect; inconclusive = small, poorly fitted or top-dose-only effect, or another doubt; inactive = no such curve, though single readings can be large; an effect the other way counts as inactive or inconclusive;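 note: plate controls were enzyme without inhibitor for no effect and buffer without enzyme for full effect; nearly all actives have a fitted effect of over 40% in size; top concentration of the series not given in the record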
Target sequence (P25779 123-467 limits assumed): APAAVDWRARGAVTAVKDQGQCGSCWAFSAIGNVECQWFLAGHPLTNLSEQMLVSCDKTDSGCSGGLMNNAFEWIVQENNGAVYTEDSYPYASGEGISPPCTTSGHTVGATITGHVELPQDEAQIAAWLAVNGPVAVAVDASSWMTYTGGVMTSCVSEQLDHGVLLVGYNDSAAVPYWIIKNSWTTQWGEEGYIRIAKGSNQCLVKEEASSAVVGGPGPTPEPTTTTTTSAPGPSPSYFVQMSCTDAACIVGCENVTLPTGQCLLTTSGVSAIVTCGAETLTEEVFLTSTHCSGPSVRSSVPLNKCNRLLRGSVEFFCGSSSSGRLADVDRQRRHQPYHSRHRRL
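Detergent-free condition (0.00005% Triton X-100) in acetate buffer pH 5.5 with DTT. 1.5 nM enzyme and compound were pre-mixed 15 min, then 2 uM Z-FR-AMC substrate added; reaction progress from fluorescence change between first and third reads (60 s).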
LASV entry inh = blocks Lassa virus binding to or entry into cells | Lassa virus pseudotype entry inhibition, cell reporter; control for the full effect not named in the record | Potency, µM (series often up to 37.9 µM), inactives show at the top dose activity change, negative = inhibition, most hits filed as inhibitors | 300,000 compounds, 1.2% hits | AID 540256; active means well fitted inhibition curve with a large enough effect; inconclusive means small, poorly fitted or top-dose-only effect, or effect the other way; inactive means flat fitted curve, though single readings scatter; tested in HEK293 cells; note: % is set by controls: 0 for no effect and ±100 for the full control effect; nearly all actives have a fitted effect of over 50% in size; luciferase read-out
NS1 inh = influenza NS1 inhibition | S. cerevisiae slowed by influenza A NS1, growth recovery by OD600 | Potency, µM (top dose mostly 46.1 µM), for the others: top-dose activity, positive = more growth | 270,000 compounds, 0.4% hits | AID 2326; note: actives are rising curves; nearly all actives have a fitted effect of over 50% in size
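Read-out: OD600 growth recovery of NS1-expressing budding yeast. Cells grown overnight at 30C in -URA glucose medium, washed, resuspended and diluted 1:100 in 2% galactose assay medium, pH 6.0. Same strain lacking NS1 served as positive control.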
MARV entry inh = Marburg virus entry inhibition. Marburg virus pseudotyped entry inhibition, cell reporter; control for the full effect not named in the record; about a third of the inactives were read at about 46 µM. Potency, µM (doses to about 37.8 µM), for inactives: at the top dose activity change, negative = inhibition, usual class: inhibitors. 300,000 compounds, 1.8% hits. AID 540276; active = well fitted inhibition curve with a large enough effect; inconclusive = small, poorly fitted or top-dose-only effect, or effect the other way; inactive = flat fitted curve, though single readings scatter; tested in HEK293 cells; about a fifth of its hits are not listed in these tables; note: % is set by controls: 0 for no effect and ±100 for the full control effect; luciferase read-out
RE007 growth inh = less growth of the S. pombe RE007 Vpr strain; S. pombe RE007 Vpr strain, BacTiter-Glo ATP luminescence, 24 h; control for the full effect not named in the record; Potency, µM (top dose mostly 92.2 µM), inactives show at the highest dose activity change, negative = less growth; 360,000 compounds, 0.21% hits; active = well fitted falling curve with a large enough effect; inconclusive = small, poorly fitted or top-dose-only effect; inactive = no such curve, though single readings can be large or run the other way;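 note: % is set by controls: 0 for no effect and ±100 for the full control effect; nearly all actives have a fitted effect of over 50% in size; the assay follows cell death caused by Vpr and the record does not say whether a fall means rescue or toxicity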
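Fission yeast RE007 carrying one integrated HIV-1 vpr copy, seeded at OD 0.01 in PMG+AL medium with 23 nL pinned compound. Grown 24 h at 30 degrees; viability read by BacTiter-Glo luminescence after 5 min.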
SARS PLpro yeast = inhibitors of SARS-CoV papain-like protease in yeast | S. cerevisiae expressing SARS-CoV PLpro, growth rescue; control for the full effect not named in the record | Potency, µM (doses to about 32.9 µM), for inactives: at the highest dose activity, positive = growth rescue | 330,000 compounds, 0.19% hits | AID 485353; note: 0% is about no effect; nearly all actives have a fitted effect of over 55% in size; growth read by luminescence after 48 h
Cruzain Triton = cruzain (T. cruzi) inhibition with detergent | purified cruzain, Z-FR-AMC fluorescence, 0.01% Triton | Potency, µM, for the others: max response, negative = inhibition, most hits filed as inhibitors | 200,000 compounds, 0.43% hits; active = well fitted curve in the direction sought with a large enough effect; inconclusive = small, poorly fitted or top-dose-only effect, or another doubt; inactive = no such curve, though single readings can be large; an effect the other way counts as inactive or inconclusive;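 note: plate controls were neutral wells for no effect and buffer without enzyme for full effect; nearly all actives have a fitted effect of over 40% in size; top concentration of the series not given in the record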
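Compounds were screened in titration against cruzain (1.5 nM) with 0.01% Triton X-100 to counter colloidal aggregation. Activity was the AMC fluorescence increase over 60 s after adding 2 uM Z-FR-AMC at pH 5.5.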
2A StopGo = lowers the luciferase signal of an FMDV 2A StopGo reporter. human cells with a luciferase reporter of 2A StopGo recoding; control for the full effect not named in the record. Potency, µM (highest dose often 57.9 µM), inactives show at the highest dose signal change, negative = less light. 410,000 compounds, 1.2% hits. AID 1159524; active = well fitted falling curve with a large enough effect; inconclusive = small, poorly fitted or top-dose-only effect; inactive = no such curve, though single readings can be large or run the other way; tested in HEK293T cells; note: % is set by controls: 0 for no effect and ±100 for the full control effect; nearly all actives have a fitted effect of over 45% in size; luciferase light after 4 h
* hit, by the source's call; u = inconclusive; x = no result given; & = joins results of further samples; [ ] = remark or other dose. Unless noted, calls come from the whole dose curve; as a rule, active means well fitted rising curve with a large enough effect; inconclusive means small, poorly fitted or top-dose-only effect; inactive means no such curve, though single readings can be large or run the other way. Potency is the fitted concentration of half-maximal effect.

SMILES	Cruzain inh noDet	LASV entry inh	NS1 inh	MARV entry inh	RE007 growth inh	SARS PLpro yeast	Cruzain Triton	2A StopGo
CC(C)=CC(=O)Nc1ccc(S(=O)(=O)Nc2ccccn2)cc1	x	x	5%	x	0%	0%	x	36%[activator]
COc1cc(Cl)c(S(=O)(=O)N2CCN(Cc3ccc4c(c3)OCO4)CC2)cc1Cl	12%	u	-89%	-4%&-4%	10%	-15%	-6.3%	-20%
Cc1ccc(-n2nnnc2CS(=O)(=O)c2ccccc2)c(C)c1	x	-9%	0%	u	-1%	-2%	x	1%
O=C(C[n+]1ccc2ccccc2c1)Nc1cc(C(F)(F)F)ccc1Cl	4%	-17%	1%	u	-3%	-15%	-1.8%	0%
Cc1nc2cc(NC(=O)Nc3cccc4ccccc34)ccc2n1C	x	0%	0%	u	22%	0%	x	43%
CC(OC(=O)Cc1n[nH]c(=O)c2ccccc12)C(=O)Nc1ccccc1[N+](=O)[O-] (stereo not drawn)	x	-1%	1%	2%	9%	-7%	x	-15%
CCSc1nsc(NC(=O)Nc2ccccc2OC)n1	x	15%	-6%	u	0%	-1%	x	2%
COc1ccccc1NC(=O)CN1C(=O)c2cccc3cccc1c23	9%	0%[46.1 µM]	x	u	x	x	-4.6%	-7%
CNC(=O)Oc1ccc(-c2cn3cc(C)ccc3n2)cc1	-9%	0.32µM*	-66%	0.65µM*	u	-27%	-3.5%	13µM*
OCCN1CCN(c2ncnc3scc(-c4ccc(F)cc4)c23)CC1	x	x	10%	x	24%	-1%	x	-10%
O=C(c1ccccc1)N1CCN(C(=S)NCCc2ccccc2)CC1	15%	-3%	1%	-1%	1%	4%	-3.5%	3%
COc1ccc(NC(=O)c2coc(C)c2)cc1	x	19%[46.1 µM]	0%	u	-12%	-2%	x	28%
O=C(Nc1cccc(Cl)c1)c1cc(-c2ccc3c(c2)OCO3)on1	u	u	x	u	x	x	-1.0%	-6%
Cc1ccc(C(=O)N/C(=C\c2cccs2)C(=O)NCc2ccncc2)cc1	-11%	0%	-4%	-3%	-4%	1%	3.0%	6%
COC(=O)c1cc(OC)c(OC)cc1NC(=O)c1ccccc1	u	8%	-6%	5%	-19%	0%	-0.6%	0%
NC(=O)[C@@H]1CCCN1C(=O)c1ccc2oc(CCc3ccccc3)nc2c1	x	-1%	3%	13%	3%	-1%	x	6%
O=C(O)c1ccc(N2CC3CC(C2)c2cccc(=O)n2C3)c(NC(=S)Nc2ccc(Cl)cc2Cl)c1 (stereo not drawn)	x	1%[46.1 µM]	x	0%[46.1 µM]	4%	0%	x	-6%
S=C(NCCc1ccccn1)Nc1ccc(Cl)c(Cl)c1	1%	13%	7%	-35%	32%	0%	-4.1%	64%[activator]
Cc1cc(C)c(C)c(S(=O)(=O)Nc2ccc(O)cc2)c1C	-23%	-19%	-7%	u	7%	-3%	-8.3%	-4%
O=C(COC(=O)c1cc(=O)[nH]c2ccccc12)c1cccs1	x	14%	0%	2%[46.1 µM]	16%	1%	x	21%
c1ccc(CN2CCN(C(c3ccccc3)c3ccccc3)CC2)cc1	x	u	-8%	u	-22%	5%	x	u
COc1ccc(Cc2nnc(NC(=O)c3cccc([N+](=O)[O-])c3)s2)cc1	u	5%	4%	9%	-18%	1%	5.6%	-9%
Cc1ccc(CNC(=O)c2ccccc2NC(=O)c2nsc3ccccc23)cc1	-12%	u	x	x	x	x	4.0%	-3%
Cc1ccc2c(c1)c1c(c(=O)n(-c3ccccc3)c(=O)n1Cc1ccccc1C)n2C	-6%	17%[46.1 µM]	x	x	x	x	-1.0%	-1%
Cc1ccc(-c2nc(S(=O)(=O)c3ccccc3)c(SCC(=O)NCC3CCCO3)o2)cc1 (stereo not drawn)	x	u	28%	-11%[46.1 µM]	-10%	-2%	x	-17%
COc1ccccc1NC(=O)NNC(=O)c1cc2ccccc2cc1O	x	x	13%	x	-2%	3%	x	16%
Cc1nc2nc(SCC(=O)Nc3cccc(Cl)c3)nn2c(C)c1Cc1ccccc1	-12%	-4%[46.1 µM]	x	x	x	x	-0.3%	u
CCOC(=O)c1ccccc1NC(=O)/C(C)=C/C(=O)O	-3%	10%	10%	-8%	2%	0%	9.4%	-24%
CCOC(=O)c1c(OCC)[nH]c2c1cc(O)c1ccccc12	-4%	0%	-11%	4%	-18%	-5%	-4.2%	x
Cn1c(=O)c2c(nc(CN3CCN(c4cccc(Cl)c4)CC3)n2CCc2ccccc2)n(C)c1=O	x	u	x	u	10%	x	x	-15%
Cc1ccc(C(=O)NC2CCN(S(=O)(=O)c3ccccc3)CC2)cc1	x	0%	-6%	-1%[46.1 µM]	0%	0%	x	-5%
CN(C)C1(CNC(=O)C2CCC(=O)N(CCc3ccc(Cl)cc3)C2)CCCCC1 (stereo not drawn)	x	u	4%	-10%	0%	19%	x	-14%
CN(Cc1ccccn1)C(=O)C1CCC(=O)N(CCc2ccc(Cl)cc2)C1 (stereo not drawn)	x	x	-7%	x	-6%	3%	x	3%
O=c1ccc(Cl)cn1Cc1ccccc1F	-8%	5%	1%	9%	18%	-5%	-0.9%	6%
CCOC(=O)c1c(NC(=O)c2cc(CC(C)C)on2)sc(C(C)=O)c1C	-7%&6%	6%[46.1 µM]	-3%	-1%[46.1 µM]	-18%	4%	-2.7%&-2.5%	6%&-5%
CCC(=O)c1ccc(OCC(=O)N2CCCC2)c(OC)c1	x	x	10%	x	-15%	0%	x	4%
C/C=C/Cn1c(SCc2ccc(C)cc2)nc2c1c(=O)[nH]c(=O)n2C	-20%	-16%	-4%	-26%[46.1 µM]	6%	-4%	-0.9%	u
COc1cccc(NC(=O)CSc2nnc(C)s2)c1	-7%	16%	-6%	u	4%	-12%	9.5%	-13%
Nc1nnc(SCc2ccc(F)cc2)s1	-3%	u	1%	11%	7%	x	1.0%	26%
COc1ccc(NC(=S)N2CCNC(=O)C2CC(=O)Nc2ccc(C)cc2)cc1 (stereo not drawn)	22%	2%	13%	u	-14%	u	-5.0%	-19%
CCn1c(CNC(=O)COc2ccc(C(C)C)cc2)nnc1SCC(=O)Nc1ccccc1F	u	-28%	-7%	-16%	14%	-4%	-6.3%	x
CCOc1ccccc1NC(=O)C(NS(=O)(=O)c1cccc2nsnc12)c1ccccc1 (stereo not drawn)	-1%	13%[46.1 µM]	x	x	x	x	-3.0%	11%
Cc1ccsc1/C=N/NC(=O)CNC(=O)c1c(F)cccc1Cl	x	x	-5%	x	-5%	-1%	x	-4%
O=C(C1COc2ccccc2O1)N1CCN(c2nc3ccc(F)cc3s2)CC1 (stereo not drawn)	-23%	-16%[46.1 µM]	x	x	x	x	-16%	-24%
O=C1CCCN1C(=O)CSc1ncnc2sccc12	x	15%	x	-3%	-7%	4%	x	83%[activator]

Given with values under each structure: 13 of the compounds above.
Below each compound: Cruzain inh noDet	LASV entry inh	NS1 inh	MARV entry inh	RE007 growth inh	SARS PLpro yeast	Cruzain Triton	2A StopGo
Cn1c(=O)c2c(nc(CN3CCN(c4cccc(Cl)c4)CC3)n2CCc2ccccc2)n(C)c1=O
 : x	u	x	u	10%	x	x	-15%
Cc1ccc(C(=O)NC2CCN(S(=O)(=O)c3ccccc3)CC2)cc1
 : x	0%	-6%	-1%[46.1 µM]	0%	0%	x	-5%
CN(C)C1(CNC(=O)C2CCC(=O)N(CCc3ccc(Cl)cc3)C2)CCCCC1 (stereo not drawn)
 : x	u	4%	-10%	0%	19%	x	-14%
CN(Cc1ccccn1)C(=O)C1CCC(=O)N(CCc2ccc(Cl)cc2)C1 (stereo not drawn)
 : x	x	-7%	x	-6%	3%	x	3%
O=c1ccc(Cl)cn1Cc1ccccc1F
 : -8%	5%	1%	9%	18%	-5%	-0.9%	6%
CCOC(=O)c1c(NC(=O)c2cc(CC(C)C)on2)sc(C(C)=O)c1C
 : -7%&6%	6%[46.1 µM]	-3%	-1%[46.1 µM]	-18%	4%	-2.7%&-2.5%	6%&-5%
CCC(=O)c1ccc(OCC(=O)N2CCCC2)c(OC)c1
 : x	x	10%	x	-15%	0%	x	4%
C/C=C/Cn1c(SCc2ccc(C)cc2)nc2c1c(=O)[nH]c(=O)n2C
 : -20%	-16%	-4%	-26%[46.1 µM]	6%	-4%	-0.9%	u
COc1cccc(NC(=O)CSc2nnc(C)s2)c1
 : -7%	16%	-6%	u	4%	-12%	9.5%	-13%
Nc1nnc(SCc2ccc(F)cc2)s1
 : -3%	u	1%	11%	7%	x	1.0%	26%
COc1ccc(NC(=S)N2CCNC(=O)C2CC(=O)Nc2ccc(C)cc2)cc1 (stereo not drawn)
 : 22%	2%	13%	u	-14%	u	-5.0%	-19%
CCn1c(CNC(=O)COc2ccc(C(C)C)cc2)nnc1SCC(=O)Nc1ccccc1F
 : u	-28%	-7%	-16%	14%	-4%	-6.3%	x
CCOc1ccccc1NC(=O)C(NS(=O)(=O)c1cccc2nsnc12)c1ccccc1 (stereo not drawn)
 : -1%	13%[46.1 µM]	x	x	x	x	-3.0%	11%

The list continues:
SMILES	Cruzain inh noDet	LASV entry inh	NS1 inh	MARV entry inh	RE007 growth inh	SARS PLpro yeast	Cruzain Triton	2A StopGo
O=c1c(Cc2ccc(Cl)cc2Cl)c(O)ccn1CCCN1CCOCC1	x	-20%[46.1 µM]	5%	0%[46.1 µM]	5%	1%	x	21%
Cc1cc(C(=O)NCc2ccccc2C)c2c(C)nn(-c3cccc(F)c3)c2n1	-10%	-4%[46.1 µM]	x	x	x	x	-1.3%	6%
CCCSc1nnc2n(C)c(=O)c3c4c(sc3n12)CCC4	3%	0%	-112%	-15%&-15%	10%	-2%	-5.7%	u
COc1cc(/C(C#N)=C/c2cccc3ccccc23)c([N+](=O)[O-])cc1OC	u	12%	16%	14%	4%	27%	-4.7%	-21%
